BJeLR lethal: kills HRASV12-expressing BJeLR cells; actives 0.17% (n = 300,000); BJeLR (HRASV12) viability, CellTiter-Glo ATP luminescence, 48 h; reference of the scale not given here; inhibition, % (concentration not given with the values);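 active = replicate mean above 50%; inconclusive = above 50% but judged a plate artefact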;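 also: 50 nL library stock added to about 25 µL; numbers are from one replicate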
Autofluor counter: counter-screen for toxin protease inhibitors: compound fluorescence; compound autofluorescence counterscreen, microsphere flow cytometry; stronger effect = higher value; fluorescence intensity (concentration not given with the values); actives 3.1% (n = 360,000); AID 624483;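 active = at least 3 SD above the mean of all compounds, about 16000 in these data; inconclusive = too few beads counted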;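 also: 100 nL of 1 mM stock went into each well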
PrP UTR inh: suppresses PrP 5' UTR mRNA reporter expression; cell-based PrP 5' UTR mRNA reporter, plate reader; inhibition, % (no concentration beside the values); actives 0.35% (n = 340,000); AID 488862;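 active = every replicate at 50% or more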;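 also: 0 = median of the neutral control wells; tested in H4 reporter cells; numbers are from one replicate; inactives centre near -14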
ugtP null kill: compounds lethal to S. aureus RN4220 ugtP deletion mutant; OD600 growth, 16 h; some inactives read as strong as hits; growth inhibition, % (concentration not given with the values); actives 0.54% (n = 330,000);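 active = z-score under -3 and OD600 up to 0.15 on both plates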;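 also: plate controls were untreated wells for no effect and antibiotic for full effect; wells of about 80 µL received 100 nL stock; the first replicate is given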
Sa RN4220 lethal: kills Staphylococcus aureus RN4220; actives 0.33% (n = 330,000); S. aureus RN4220 growth, OD600, 16 h; inhibition, % (no concentration beside the values);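 active = z-score of -3 or lower and OD600 up to 0.18 on both plates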;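 also: plate controls were untreated cells for no effect and reference antibiotic for full effect; stock transfer was 100 nL into about 80 µL; one replicate is shown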
Mtb hypoxia rep: reduces hypoxia-regulated biosensor signal in M. tuberculosis | M. tuberculosis hypoxia-regulated fluorescent reporter, fluorescence | fluorescence inhibition, % (concentration not given with the values) | actives 0.1% (n = 300,000) | AID 1159583;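 active = 35 to 45% if threefold the growth effect, above 45% if 1.5-fold the growth effect; inactive = the rest, general growth blockers included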;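 also: wells of about 50 µL received 100 nL stock; 0% = vehicle wells and 100% = reference inhibitor wells; whole bacteria with a GFP reporter of the hypoxia response; strong numbers were not always called active; many hits fall short of the cut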
Mtb hypoxia rep growth: second read-out of Mtb hypoxia rep, no call of its own (marks repeat the call); growth inhibition, %; measured here: M. tuberculosis growth (absorbance);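 0% = vehicle and 100% = reference antibiotic; read after six days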
Active calls of the source: *; u = inconclusive; x = no result given; & = joins results of further samples. Hits appear at their usual frequency. Share with any hit: about 4%.

No.	mol	BJeLR lethal	Autofluor counter	PrP UTR inh	ugtP null kill	Sa RN4220 lethal	Mtb hypoxia rep	Mtb hypoxia rep growth
1	CC(=O)c1cccc(CN2CCC(CO)(CCCc3ccccc3)CC2)c1	1	5570	-30	0	1.7	9	4
2	CCc1cccc(NC(=O)Cn2c(-c3ccccc3)cc(C(C)=O)c2C)c1	-2	2591	-23	0	2.5	-2	9
3	CC1CCCC(C)N1C(=S)NCc1ccco1 (configuration not stated)	-3	4587	-17	4	0.5	0	1
4	CCOC(=O)c1ccc(N2C(=O)C3CC=CCC3C2=O)cc1 (configuration not stated)	-4	5608	-16	9	4.0	11	5
5	O=C(NCc1ccccc1)c1onc(CSc2ccccn2)c1C(=O)NCc1ccccc1	-5	3019	-20	1	-3.3	13	4
6	CC1(C)CC(=O)C2=C(C1)NCN(CCCN1CCOCC1)C2	7	4415	-17	2	1.5	7	5
7	COc1ccc(C)c(NC(=O)C2CC(=O)NC3=C2C(=O)CCC3)c1 (configuration not stated)	5	4765	-1	8	3.6	-6	-11
8	CN(CC#CCN1CCCC1)C(=O)c1cccc(Cl)c1	11	3871	-25	-11	3.8	15	9
9	O=C(O)Cn1nnc(-c2ccc(OCc3ccccc3)cc2)n1	-21	3962	-19	x	x	x	x
10	O=C(COC(=O)c1cnc(Cl)c(Cl)c1)Nc1ccc(S(=O)(=O)N2CCCC2)cc1	-2	2356	-10	-2	1.9	11	5
11	Cc1nn(-c2ccccc2)cc1C=NO	x	x	x	0	5.0	8	7
12	[O-][n+]1ccccc1SCc1ccccc1	-5	3950	-7	-2	1.0	0	9
13	COC(=O)CCCC1=CC2=C(c3ccccc3)C(=O)C(C)(OC(=O)C3CCCC3)C(=O)C2=CN1c1ccccc1 (configuration not stated)	-4	2761	-18	1	5.2	5	9
14	O=C(CNc1cccc(S(=O)(=O)N2CCOCC2)c1)Nc1ccccc1F	-3	4788	-9	6	2.8	0	-5
15	CCOC(=O)C1(Cc2cccc(OC)c2)CCN(Cc2cc(OC)ccc2OC)CC1	0	4767	-25	1	2.9	8	4
16	CCOc1ccccc1C1C(C#N)=C(N)SC(N)=C1C#N	-5	4715	-30	-7	1.3	x	x
17	CN(C)c1ccc(N2C(=NC(=O)COc3ccccc3)SC3CS(=O)(=O)CC32)cc1 (configuration not stated)	7	6001	-7	0	-0.3	-5	2
18	COC(=O)C1CC1C(NP(=O)(c1ccccc1)c1ccccc1)c1ccccc1 (configuration not stated)	x	x	x	0&-5	6.2&7.0	10&12	8&8
19	CC1CCN(C(=O)c2ncn(Cc3ccccc3)c2C(=O)N2CCC(C)CC2)CC1	x	4295	-29	12	9.1	20	6
20	O=C(NCCO)c1scc2c1OCCO2	7	4059	-5	2	1.1	x	x
21	Cc1nn(C)cc1/C=N/NC(=O)C(C)(C)Oc1ccc(Cl)cc1	-6	11317	2	x	x	x	x
22	O=C(COC(=O)c1ccccc1)Nc1ccccc1Br	-1	2472	-16	2	7.3	7	3
23	COc1ccccc1C/C(N)=N/OC(=O)c1cccs1	6	3909	0	-1	-0.2	-1	12
24	CON/C=C(\C=Nc1ccc(Cl)cc1)c1ncc(C(F)(F)F)cc1Cl	-6	23332*	-15	74	-2.0	4	-6
25	COc1cc(OC)c(C(=O)O/N=C(\N)c2cccc(C)c2)cc1OC	0	3733	-24	21	1.5	14	8
26	COc1cccc(C=NNc2ccc(C(=O)O)cc2)c1O	x	x	x	-1	2.0	1	-12
27	COc1ccc(-n2ncc3c(NCCCn4ccnc4)ncnc32)cc1	-1	9708	-5	8	6.1	11	5
28	COc1ccc(/C=C/C(=O)NNc2cc(=O)n(C)c(=O)n2C)cc1OC	-2	4779	-13	5	11	-5	0
29	COc1ccc2[nH]c3c(c2c1)CCC/C3=N\N	-7	3616	4	x	x	x	x
30	CCN(CC(=O)NC1CCS(=O)(=O)C1)S(=O)(=O)c1ccc(Cl)cc1C(F)(F)F (configuration not stated)	2	u	-25	7	3.2	11	-3
31	O=C(NNC(=O)c1cc(S(=O)(=O)N2CCCCC2)ccc1Cl)c1ccccc1O	x	8996	-22	1	34	-1	2
32	COc1ccc(C(=O)c2sc(Nc3ccccc3)c(C(=O)Nc3ccc(OC)c(OC)c3)c2N)cc1	8	2846	2	-5	-1.9	-6	0
33	Cc1cc(NC(=O)CCC(=O)N(c2ccccc2)C(C(=O)NC2CCCCC2)c2cccs2)no1 (configuration not stated)	1	2956	-25	-5	6.5	-1	3
34	COc1ccc(NC(=O)CS(=O)CC(=O)Nc2ccc(F)cc2F)cc1 (configuration not stated)	-2	5457	-5	12	2.5	1	0
35	CC(C)COC(=O)c1ccc(NC(=O)C2C3CCC(C3)C2C(=O)O)cc1 (configuration not stated)	5	4068	-99	9	-4.0	x	x
36	COc1ccc(-c2nc(CS(=O)(=O)CC(=O)NCCCN3CCN(C)CC3)c(C)o2)cc1	7	5183	1	0	-1.3	6	5
37	CN(C)S(=O)(=O)c1ccc(C(=O)NCC(C)(C)CN=C2NS(=O)(=O)c3ccccc32)cc1	-19	3814	-15	9	2.6	-2	4
38	CCOP(=O)(OCC)/C(=N/OC(=O)c1cccc([N+](=O)[O-])c1)C(N)=O	18	u	-5	x	x	x	x
39	COC(c1ccc(Cl)cc1)(c1ccc(Cl)cc1)C(Oc1nccc(C)n1)C(=O)O (configuration not stated)	-17	3606	5	-7	2.5	-13	6
40	COc1ccc(N2CCN(C(CNS(=O)(=O)c3ccc4c(c3)OCCO4)c3ccco3)CC2)cc1 (configuration not stated)	13	11080	1	x	x	x	x
41	Nc1nonc1C(=O)NCCNS(=O)(=O)c1ccc(F)cc1	2	2100	-5	2	3.0	11	3
42	COc1ccc(NC(=O)CSc2nc3c([nH]c4ccccc43)c(=O)n2C)cc1	1	6076	-8	13	5.8	5	1
43	C#CC[N+](C)(C)CCCCCCCC	18	2303	-9	15	6.6	3	6
44	Cc1cc(C(=O)Nc2ccccc2)c(C)o1	2	3579	-28	-2	-3.2	1	9
45	COc1ccc(C(=O)N2c3ccccc3CC2C)cc1OC (configuration not stated)	-1	4636	2	-4	-1.2	x	x
46	Cc1sc(NC(=O)CSc2ncn(-c3ccccc3)n2)nc1-c1ccccc1	-24	16319*	-24	-6	9.4	6	10
47	COc1cccc(NS(=O)(=O)NC(=O)c2cn(C)c3ccccc23)c1	6	5641	-14	-1	3.2	0	1
48	O=C(O)c1cnc2ccccc2n1	3	4206	-6	-5	-1.0	-3	11
49	CCc1cc(C(=O)NN2C(=O)NC3(CCCCC3)C2=O)sc1C	x	2761	-11	14	9.0	-6	-10
50	Cc1noc(C)c1S(=O)(=O)N1CCN(c2ccccc2Cl)CC1	x	5037	-25	10	3.1	6	0
51	O=C(Nc1ccnn1C1CCN(C(=O)c2ccc(F)c(Cl)c2)CC1)C1CC1	-4	6029	3	-2	-0.8	-3	2
52	Cc1c(C(=O)OCC(=O)Nc2ccccc2OC(F)F)cccc1[N+](=O)[O-]	4	2866	-3	2	-0.2	0	-1
53	Cc1ccc(NC(=S)Nc2cccc3ccccc23)cc1F	5	4105	-35	3	-4.8	-3	8
54	CCOC(=O)c1ccccc1NC(=O)CSC(C)C(=O)Nc1cc(C)on1 (configuration not stated)	-2	5684	-28	3	4.9	1	4
55	c1ccc(CSc2ncnc3c2oc2ccccc23)cc1	3	4629	-19	2	3.9	x	x
56	COC(=O)c1ccccc1S(=O)(=O)NCc1nc2nc(C)cc(C)n2n1	3	6146	-5	-2	3.1	5	4
57	Cc1nc2scc(C)n2c(=O)c1S(=O)(=O)NCc1ccc(F)cc1	-13	5386	-17	-7	-2.4	-14	-12
58	O=C(Cn1nc(C(=O)O)c2ccccc2c1=O)Nc1cc(C(F)(F)F)ccc1-n1cncn1	x	4379	x	6	0.3	11	8
59	O=C(Nc1ccccc1N1CCCC1)c1cccc(F)c1	22	3831	-7	5	4.2	9	19
60	Nc1ncc([N+](=O)[O-])c(N2CCCCCC2)n1	1	4444	10	0	-1.2	-4	-2

12 compounds out of the list, ordered by length of the SMILES, ascending.
No.	mol	BJeLR lethal	Autofluor counter	PrP UTR inh	ugtP null kill	Sa RN4220 lethal	Mtb hypoxia rep	Mtb hypoxia rep growth
43	C#CC[N+](C)(C)CCCCCCCC	18	2303	-9	15	6.6	3	6
44	Cc1cc(C(=O)Nc2ccccc2)c(C)o1	2	3579	-28	-2	-3.2	1	9
55	c1ccc(CSc2ncnc3c2oc2ccccc23)cc1	3	4629	-19	2	3.9	x	x
53	Cc1ccc(NC(=S)Nc2cccc3ccccc23)cc1F	5	4105	-35	3	-4.8	-3	8
60	Nc1ncc([N+](=O)[O-])c(N2CCCCCC2)n1	1	4444	10	0	-1.2	-4	-2
41	Nc1nonc1C(=O)NCCNS(=O)(=O)c1ccc(F)cc1	2	2100	-5	2	3.0	11	3
49	CCc1cc(C(=O)NN2C(=O)NC3(CCCCC3)C2=O)sc1C	x	2761	-11	14	9.0	-6	-10
57	Cc1nc2scc(C)n2c(=O)c1S(=O)(=O)NCc1ccc(F)cc1	-13	5386	-17	-7	-2.4	-14	-12
54	CCOC(=O)c1ccccc1NC(=O)CSC(C)C(=O)Nc1cc(C)on1 (configuration not stated)	-2	5684	-28	3	4.9	1	4
46	Cc1sc(NC(=O)CSc2ncn(-c3ccccc3)n2)nc1-c1ccccc1	-24	16319*	-24	-6	9.4	6	10
51	O=C(Nc1ccnn1C1CCN(C(=O)c2ccc(F)c(Cl)c2)CC1)C1CC1	-4	6029	3	-2	-0.8	-3	2
58	O=C(Cn1nc(C(=O)O)c2ccccc2c1=O)Nc1cc(C(F)(F)F)ccc1-n1cncn1	x	4379	x	6	0.3	11	8

Other records follow:
No.	mol	BJeLR lethal	Autofluor counter	PrP UTR inh	ugtP null kill	Sa RN4220 lethal	Mtb hypoxia rep	Mtb hypoxia rep growth
61	COc1ccc(/C=C/C(=O)N(C(C)C)C(C)C)cc1Br	8	11098	x	2	9.4	7	11
62	O=C(Nc1ccc2c(c1)OCCO2)c1ccc(Cl)c([N+](=O)[O-])c1	6	2600	-23	-2	0.1	10	10
63	CCCCCn1nnc2c(=O)oc3ccccc3c21	-5	1979	4	-1	4.7	7	1
64	Nc1cccc(-c2cnc3ccccc3n2)c1	4	3617	-38	-16	2.5	-4	4
65	COc1ccc2cc3c(N)nn(C(=O)c4ccccc4[N+](=O)[O-])c3nc2c1	0	2272	31	-13	5.0	3	5
66	COc1ccccc1C1(O)CCN(CC(=O)Nc2nc(-c3ccccc3)cs2)CC1	6	3931	-13	2	-0.6	-3	5
67	Cc1onc(-c2ccccc2)c1C(=O)NC(=S)Nc1sc2c(c1C#N)CCC(C)C2 (configuration not stated)	8	2448	-6	14	10	4	8
68	O=c1[nH]c2ccccc2n1CCCN1CCCCC1	4	u	1	0	1.5	8	4
69	CCCN(CCC)CC(O)Cn1cc(/C=C/C(=O)c2ccccc2)c2ccccc21 (configuration not stated)	3	4537	34	35	3.2	x	x
70	Cc1cccc(Oc2ccc3c(c2)cc(C(=O)O)n3C)c1	4	2837	5	-8	6.8	23	10
71	COc1cc(OC)c(OC)cc1CNCCc1ccc(F)cc1	12	4401	-15	6	3.2	4	1
72	Cc1cccc(C)c1-n1c(C)nn(CC#N)c1=O	-2	4191	-7	20	5.6	9	3
73	CC(C)OCCCNc1ncc2c(n1)CC(c1ccccc1)CC2=O (configuration not stated)	1	2805	-10	-6	6.7	7	7
74	COc1ccc(CC(=O)NCc2nnc(SCc3ccc(C)cc3)n2C)cc1	5	2633	-9	-3	0.1	3	5
75	O=C(O)c1cccc(NN=Cc2cccs2)c1	x	x	x	20	-6.4	0	0
76	CCN(CC)C(=O)Cn1c(=O)n(CC(=O)N2CCCCC2)c(=O)c2sccc21	1	u	-19	4	2.8	-5	-2
77	COc1cc(/C=N/NC(=O)Cn2nc([N+](=O)[O-])cc2C)cc(Br)c1OCc1ccccc1	8	4812	-5	x	x	x	x
78	Cc1ccc(-n2nc3ccc(NC(=S)NC(=O)/C=C/c4ccco4)cc3n2)cc1	1	2386	-34	x	x	x	x

Given with one line to a screen: entries from further up.
29. COc1ccc2[nH]c3c(c2c1)CCC/C3=N\N
30. CCN(CC(=O)NC1CCS(=O)(=O)C1)S(=O)(=O)c1ccc(Cl)cc1C(F)(F)F (configuration not stated)

screen / no. | 29 | 30
BJeLR lethal | -7 | 2
Autofluor counter | 3616 | u
PrP UTR inh | 4 | -25
ugtP null kill | x | 7
Sa RN4220 lethal | x | 3.2
Mtb hypoxia rep | x | 11
Mtb hypoxia rep growth | x | -3
